UCH37 inh: blocks the human deubiquitinase UCH37. purified proteasome/UCH37, Ub-AMC cleavage fluorescence. inhibition, % (no concentration beside the values). 330,000 tested, 0.33% active;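 active = mean of two replicates above 20%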;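 note: 0% = compound-free wells with enzyme and 100% = wells lacking proteasome; stock transfer was 100 nL into about 20 µL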
Target sequence (Q9Y5K5 whole entry, looked up): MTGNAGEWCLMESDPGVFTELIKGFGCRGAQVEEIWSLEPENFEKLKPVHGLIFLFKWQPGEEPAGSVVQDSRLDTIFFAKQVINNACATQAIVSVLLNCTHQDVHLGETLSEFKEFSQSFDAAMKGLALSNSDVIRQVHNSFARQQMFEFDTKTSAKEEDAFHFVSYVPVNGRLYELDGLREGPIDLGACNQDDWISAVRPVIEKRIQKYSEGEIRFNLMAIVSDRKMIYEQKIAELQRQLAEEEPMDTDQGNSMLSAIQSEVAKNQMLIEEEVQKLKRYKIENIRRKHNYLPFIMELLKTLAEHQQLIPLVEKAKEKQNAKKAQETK
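System: Proteasome-associated human UCH37 deubiquitinase; Input: 0.15 nM proteasome in added enzyme buffer; Also added: Ub-AMC substrate from 1 µM stock; Incubation: 30 min compound-proteasome preincubation then 25 min substrate reaction, room temperature; Detection: fluorescence, ex 355 nm, em 460 nm; Read-out: % inhibition of Ub-AMC cleavage fluorescence; Benchmarks: no-proteasome and no-compound wells.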
FGF22 binding: FGF22 (human) thermal shift binding; Q9HCT0; recombinant FGF22 thermal shift, SYPRO orange fluorescence; percent of sucrose octasulfate shift, DMSO zero; calls only at 9.99 µM; 340,000 tested, 1.5% active; AID 651658;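 active = melting point raised past a set limit in the mean and every replicate; inconclusive = no clear call; three in four hits are not shown here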
Target sequence (Q9HCT0 whole entry, looked up): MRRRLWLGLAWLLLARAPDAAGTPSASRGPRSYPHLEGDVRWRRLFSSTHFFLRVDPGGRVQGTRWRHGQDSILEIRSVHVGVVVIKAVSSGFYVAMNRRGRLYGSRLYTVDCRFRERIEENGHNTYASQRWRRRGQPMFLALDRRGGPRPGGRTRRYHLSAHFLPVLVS
AF4-AF9 inh: inhibitors of human MLL-AF4/AF9 interaction. AlphaScreen, biotin-AF4 peptide binding to FLAG-AF9. inhibition, % at 10 µM. 350,000 tested, 0.47% active. AID 651704;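 active = every replicate reaching a set inhibition limit, whatever the replicate mean, cut at about 25% in these data; inconclusive = mean inhibition reaches that limit but some replicates miss it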;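 note: 0% = plate neutral control median and 100% = total signal loss; the record names both 10 and 1 µM as test concentration; the first replicate is given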
Target sequence (P42568 whole entry, looked up): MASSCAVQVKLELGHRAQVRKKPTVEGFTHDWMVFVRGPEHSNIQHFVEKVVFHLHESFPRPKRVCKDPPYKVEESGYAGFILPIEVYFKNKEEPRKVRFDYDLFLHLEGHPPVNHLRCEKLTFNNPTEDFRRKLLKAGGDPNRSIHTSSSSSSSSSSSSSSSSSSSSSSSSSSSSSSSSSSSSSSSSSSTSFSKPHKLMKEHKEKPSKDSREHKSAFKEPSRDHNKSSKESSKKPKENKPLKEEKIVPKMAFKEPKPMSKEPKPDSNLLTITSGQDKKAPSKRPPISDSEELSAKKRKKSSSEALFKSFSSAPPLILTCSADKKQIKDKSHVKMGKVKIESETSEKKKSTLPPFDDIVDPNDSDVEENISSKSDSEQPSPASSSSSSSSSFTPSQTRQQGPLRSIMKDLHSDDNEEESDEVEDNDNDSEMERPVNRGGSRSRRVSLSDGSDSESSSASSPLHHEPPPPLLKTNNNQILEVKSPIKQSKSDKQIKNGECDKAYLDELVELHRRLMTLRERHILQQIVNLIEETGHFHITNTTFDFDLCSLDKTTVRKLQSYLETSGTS
Vif TR-FRET: HIV-1 Vif–A3G interaction blockers – biochemical, TR-FRET, GST-Vif 1-94, biotin-A3G peptide, dose response retest, primary screen (AID 1117319). TR-FRET GST-Vif / biotin-A3G peptide binding; higher % means a stronger effect; test concentration not given here; strong numbers were not always called active. inhibition, %, or IC50 in µM where a hit was titrated. 260,000 tested, 0.57% active;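 active = above the screen mean plus three standard deviations and confirmed in dose response; inconclusive = results disagree or hit not tested in dose response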;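 note: Vif residues 1-94 fused to GST binding biotinylated APOBEC3G peptide 110-148; 0% = full assay without inhibitor and 100% = GST in place of GST-Vif; retest series ran down from 100 µM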
RanGTP-Imp inh: disruptors of Ran-importin-beta complex formation – biochemical, FRET, CFP-Ran, YFP-importin-beta, homogeneous, primary screen; 300,000 tested, 1.1% active; AID 2216; inhibition, % (test concentration not listed); cell-free CFP-Ran/YFP-importin-beta FRET ratio;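 active = most replicates above 15%; inconclusive = exactly half above 15%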;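 note: 0% = DMSO wells and 100% = Ran loaded with GDP instead of GTP; wells of about 40 µL received 100 nL stock; the first replicate is given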
HNF4A DNA FP: change in binding of human HNF4 alpha to DNA. P41235. HNF4a-FITC DNA binding, fluorescence polarization, 1 h. activity change, % at 10 µM. 360,000 tested, 0.3% active; in the data active = activity change above about 30%, passing the limit was not always enough;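 note: controls were the assay level and a saturating level of protein; the project sought stronger binding though the title names inhibitors; some compounds called inactive have numbers as strong as hits; positive values seem to mean higher polarization but the record does not say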
Ecoli growth: blocks Escherichia coli growth; OD600 absorbance (concentration not given with the values); 330,000 tested, 0.21% active; OD600, 23 h; stronger effect = lower value;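 active = OD600 absorbance below the run mean of sample wells minus 3.6 SD, in any replicate, cut at about 0.56 in these data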;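 note: stock transfer was 300 nL into about 60 µL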
* hit, by the source's call; i = inactive; u = inconclusive; x = no result given. Only part of the results is shown; count on the stated rates, not on these rows.

SMILES	UCH37 inh	FGF22 binding	AF4-AF9 inh	Vif TR-FRET	RanGTP-Imp inh	HNF4A DNA FP	Ecoli growth
CCC(=O)N1CCc2cc(S(=O)(=O)CCC(=O)Nc3ccc(C(C)=O)cc3)ccc21	0.7	i	0.4	x	1.6	-0.3	0.651
CCc1ccc(NC(=O)Cn2cc([N+](=O)[O-])nc2C)cc1	3.4	i	-1.9	x	-4.6	-1.2	0.631
COC(=O)c1cccc(NC(=O)c2cccc(OC)c2)c1	0.4	x	x	72.4%	x	2.3	0.674
Cc1cc(NC(=O)CSc2ccc3nnc(-c4ccccn4)n3n2)no1	-13.6	i	0.4	3.1%	-0.6	-1.8	0.724
COc1cc(NC(=S)N2CCCC(C)C2)c(OC)cc1Cl (stereo not drawn)	4.4	i	-3.5	x	2.3	1.5	0.664
COc1ccc(Cl)cc1NC(=O)NC(C)c1ccncc1 (stereo not drawn)	0.8	x	x	7.9%	-4.2	-0.5	0.654
CCOC(=O)c1nnn(-c2nn3nnnc3c3ccccc23)c1C	2.8	x	x	10.2%	6.5	-0.3	0.696
O=C([C@H](Cc1ccccc1)N1C(=O)c2ccccc2C1=O)N1CCOCC1	5.4	i	6.0	x	2.7	2.0	0.675
Cc1cccc(C(=O)N2CCN(S(=O)(=O)N3CCCCC3)CC2)c1	0.7	i	-3.0	0.6%	-2.8	-1.2	0.703
CCCCCCSc1nnc2[nH]c(=O)cc(N)n12	-0.6	i	-1.6	6.7%	u	-5.4	0.697
CCCc1ccc(C(=O)NNC(=O)c2ccc(Cl)cc2)cc1	2.4	x	x	6.8%	1.9	0.2	0.657
CC(=O)Nc1ccc2nsnc2c1	-93.2	i	-2.4	-2.4%	-2.3	-2.9	0.694
Cc1nn(CC(=O)NC(C)c2ccccc2)c(C)c1[N+](=O)[O-] (stereo not drawn)	1.1	i	-2.7	-3.0%	-2.5	1.7	0.71
COc1ccc(CN(Cc2cccn2C)C(=O)c2cc3cc(OC)ccc3[nH]2)cc1	-13.6	i	0.8	4.6%	-0.6	4.1	0.67
NC(=O)C1CCN(C(=O)c2cc3c(s2)CCCCC3)CC1	4.5	i	-1.6	-1.4%	x	1.6	0.684
O=Nc1c(O)[nH]c2ccc(Cl)cc12	x	i	-0.9	x	5.0	2.6	x
CCCCNC(=O)C1Cc2cc(S(=O)(=O)N3CCCC3)ccc2N1C(C)=O (stereo not drawn)	1.1	i	-0.3	x	8.3	2.4	0.656
CC1(C)OC(=O)C2=C(C[C@@H](C3CCCC3)O[C@H]2c2ccc(Cl)cc2)O1	x	i	0.2	x	x	1.6	x
CNC(=S)NNC(=O)c1ccc(=O)n(Cc2cccc(C(F)(F)F)c2)c1	2.4	i	0.3	-3.6%	0.4	-0.1	0.684
Nc1nc(Cl)c(N)c(NCC2(CO)CC(CCc3ccccc3)C2)n1 (stereo not drawn)	x	i	10.8	2.1%	x	36.4	x
COc1cc(=O)[nH]c(SC(C)C(=O)Nc2ccc3ccccc3c2)n1 (stereo not drawn)	2.3	i	0.0	0.4%	4.1	2.2	0.71
CCC(=O)Nc1ccccc1Sc1ncnc2scc(-c3ccccc3)c12	-9.4	i	2.7	-9.4%	0.3	-1.1	0.712
CC(C)CN1C(Nc2ccccc2)=NC[C@@H]1C	0.1	i	1.2	x	2.6	3.1	x
C=CCn1c(Cc2c(C)[nH]c3ccccc23)nnc1SCC(=O)NCc1ccc(F)cc1	-0.1	x	x	u	7.6	-3.2	0.788
O=C(Nc1cccc(Oc2ccccc2)c1)C1Cc2c(-c3cccc(F)c3)ccnc2O1 (stereo not drawn)	x	i	-5.2	x	x	-5.7	x

Reprinted at random: three records from the list
SMILES	UCH37 inh	FGF22 binding	AF4-AF9 inh	Vif TR-FRET	RanGTP-Imp inh	HNF4A DNA FP	Ecoli growth
O=C(Nc1cccc(Oc2ccccc2)c1)C1Cc2c(-c3cccc(F)c3)ccnc2O1 (stereo not drawn)	x	i	-5.2	x	x	-5.7	x
CCc1ccc(NC(=O)Cn2cc([N+](=O)[O-])nc2C)cc1	3.4	i	-1.9	x	-4.6	-1.2	0.631
COc1cc(NC(=S)N2CCCC(C)C2)c(OC)cc1Cl (stereo not drawn)	4.4	i	-3.5	x	2.3	1.5	0.664

The results go on.
SMILES	UCH37 inh	FGF22 binding	AF4-AF9 inh	Vif TR-FRET	RanGTP-Imp inh	HNF4A DNA FP	Ecoli growth
CCOC(=O)C1CCN(C(=O)c2cc3c(=O)n4ccccc4nc3s2)CC1	i	i	-4.0	x	-0.6	3.5	0.704
Cc1nc2ccc(Cl)cc2c(-c2ccccc2)c1C(=O)N(C)C	0.5	i	4.1	2.1%	2.1	-1.5	0.673
CCOC(=O)C1=C(C)NC(C)=C(C(=O)OCC)C1C(=O)OCC(=O)N1CC(C)OC(C)C1 (stereo not drawn)	-24.2	i	-7.7	-4.8%	x	5.8	0.712
O=C(Nc1cccc(NC(=O)c2cccnc2)c1)c1cccnc1	1.6	x	x	-2.9%	-1.6	0.0	0.685
CCC(NC(=O)c1ccccc1NC(=O)c1ccco1)C(=O)NC1CCCCC1 (stereo not drawn)	x	x	x	-5.5%	-0.3	-1.9	x
O=Cc1ccc(OCCN2CCCC2=O)cc1	1.3	i	0.1	6.1%	-1.6	-1.6	0.655
COC(=O)C(CCSC)NC(=O)c1cc2c(n(-c3ccccc3)c1=O)CCCC2=O (stereo not drawn)	-4.2	i	-1.8	8.0%	2.2	-1.7	0.678
CC(C)Cn1c(-c2ccccc2)nc2ccccc2c1=O	1.7	x	x	5.2%	-0.6	3.2	0.75
C=CCOC(=O)C1=C[C@@H](c2cn(C(C)=O)c3ccccc23)C[C@@H](OCCCCO)O1	2.3	i	-3.9	3.8%	-2.8	3.4	x
COc1ccc(CN(C)C(=O)CCC(=O)N2CCN(S(=O)(=O)c3ccc(Cl)cc3)CC2)c(OC)c1	0.5	i	0.0	x	x	-6.4	0.717
CC(=O)c1ccc(C(=O)N2CCCC(Nc3ccc(C(C)C)cc3)C2)s1 (stereo not drawn)	3.7	i	10.9	x	2.1	-7.2	0.69
O=C(CN1C(=O)c2ccccc2C1=O)NC1(C(=O)O)CCCC1	3.0	i	-3.4	1.6%	x	4.5	0.683
CC1=C(C)CC(C(=O)Nc2ccc(C(N)=O)cc2)C(C(=O)O)C1 (stereo not drawn)	-2.3	x	x	9.9%	3.7	-1.8	0.686
COc1cccc(C2=NOC(C(=O)N3CCN(C(=O)c4ccco4)CC3)C2)c1 (stereo not drawn)	-0.6	i	-5.5	-2.9%	-2.8	-3.2	0.726
Cc1cc(OC(=O)c2ccccc2C)c([N+](=O)[O-])c(=O)[nH]1	6.8	i	0.8	5.2%	1.5	1.6	0.725
COc1ccccc1C(=O)NC(=O)COC(=O)CN1C(=O)NC(C)(C)C1=O	1.9	i	-3.0	2.2%	6.2	4.3	0.645
Cc1nc2nc(SCc3ccccc3)[nH]n2c(=O)c1C	2.4	i	-1.8	-2.7%	1.3	1.7	0.666
O=[N+]([O-])c1cc(-c2cnc3ccccc3n2)ccc1Oc1ccc(Br)cc1	3.8	x	x	7.0%	3.0	0.9	0.776
Cc1nc2ccccc2c(=O)n1/N=C/c1ccc(N(C)C)cc1	x	x	x	u	0.8	-1.3	x
CC1(C)CC(NC(=O)COc2ccc3ccc(=O)oc3c2)CC(C)(C)N1	-19.5	i	-0.5	x	2.2	-2.7	0.665
COc1ccc([N+](=O)[O-])c2c(=O)ccoc12	7.6	x	x	-8.2%	-3.4	-3.9	0.67
O=C(CN1C(=O)NC2NC(=O)NC21)NC1CCCCC1 (stereo not drawn)	2.1	i	0.0	x	4.5	-5.0	0.692
C[C@H](CO)N1C[C@H](C)[C@@H](CN(C)Cc2ccc(-c3ccccc3)cc2)Oc2c(NS(=O)(=O)c3cccs3)cccc2C1=O	x	i	6.3	x	x	2.1	x
O=C(Nc1ccc(Cl)cc1)C1CCC(=O)N1Cc1ccccc1Cl (stereo not drawn)	3.1	x	x	u	1.2	3.2	0.71
CCOc1ccccc1CNn1cnnc1	0.7	i	x	x	1.1	2.4	0.652

Later entries
SMILES	UCH37 inh	FGF22 binding	AF4-AF9 inh	Vif TR-FRET	RanGTP-Imp inh	HNF4A DNA FP	Ecoli growth
Cc1ccccc1-n1c(SC2CCOC2=O)nnc1-c1ccncc1 (stereo not drawn)	-3.3	i	0.5	4.0%	3.4	3.2	0.657
CCOC(=O)[C@@H]1[C@H]2COc3cc(OC)ccc3[C@@H]2N2C(=O)N(c3ccc(Br)cc3)C(=O)[C@]12C	-0.5	i	0.1	x	-4.1	-0.5	x
CCC(CC)NC(=O)/C=C/c1ccccc1Cl	5.5	x	x	-10.9%	1.7	-1.3	0.672
Cc1ccccc1-n1ccnc1SCC(=O)NCc1ccco1	5.0	x	1.1	-2.8%	8.9	-3.2	0.721
Cc1cc(Br)c(Cl)cc1NC(=O)CN1C(=O)C2C3CC(c4ccccc4)C(C3)C2C1=O (stereo not drawn)	-11.9	x	x	-6.5%	1.4	5.1	0.707
O=C(NCCCCCCCCNC(=O)c1cccc2ccccc12)c1cccc2ccccc12	x	i	-2.1	3.9%	x	1.0	x
CC1CCCN(S(=O)(=O)c2ccc(C(=O)Nc3nnc(C4=COCCO4)o3)cc2)C1 (stereo not drawn)	x	i	1.7	0.4%	-2.8	4.0	x
CCn1c(COc2cccc3cccnc23)nnc1SCC(=O)O	-1.7	x	-4.1	4.9%	1.3	4.2	0.728
O=C(C1CC1)N1CCc2cc(S(=O)(=O)NCCCN3CCCCC3)ccc21	0.4	i	-0.6	x	3.3	1.0	0.673
CCOC(=O)CC1NCCc2c1[nH]c1ccc(OC)cc21 (stereo not drawn)	-2.4	i	2.4	-0.2%	5.4	-1.1	0.636
O=C(CCN1C(=O)/C(=C/c2cccs2)SC1=S)NC1=NCCS1	3.0	x	x	12.3µM*	x	0.1	0.682
CCN(C(=O)c1ccc(Br)o1)C1CCS(=O)(=O)C1 (stereo not drawn)	3.7	i	4.3	-9.4%	1.1	-2.9	0.684
Cn1cc(Br)c(C(=O)NNC(=O)c2ccc(Cl)cc2)n1	7.9	i	-11.3	10.1%	2.9	1.0	0.674
COc1ccc2[nH]c(N=Nc3ccccc3C)c(O)c2c1	3.1	x	x	x	1.4	6.3	0.738
CSc1ccc(/C=N/Nc2ccc(Cl)c(C(=O)O)c2)cc1	x	i	3.2	14.3%	5.6	2.3	x
COc1ccc(Cn2nnnc2C(c2ccc3ncccc3c2)N2CCN(C3CCCCC3)CC2)cc1 (stereo not drawn)	0.1	i	-1.1	6.3%	-3.2	0.2	0.672
Cc1cccc(N2CCN(S(=O)(=O)c3ccc(S(=O)(=O)N4CCCC4)cc3)CC2)c1C	-2.0	x	x	1.3%	1.7	0.8	0.728
COc1ccccc1C(=O)Nc1ccccc1N1CCN(C(=O)c2ccc(Cl)cc2)CC1	2.1	i	-3.6	2.5%	6.8	-1.1	0.748
c1ccc2c3n(nc2c1)CCCCO3	-0.3	i	-6.3	x	x	-1.2	0.642
O=C1CSC(c2ccccc2[N+](=O)[O-])N1c1ccc(O)cc1 (stereo not drawn)	3.3	i	-2.0	4.1%	2.1	-2.1	0.691
CC1CCN(C(=O)c2cc3c(=O)n4ccccc4nc3s2)CC1	i	i	-3.7	x	1.4	2.3	0.699
C/C(N)=C(/C#N)C(=O)CSc1nc2ccccc2c(=O)n1-c1ccc(C)c(Cl)c1	-1.7	x	x	-67.8%	7.3	5.5	0.675
COc1ccccc1CNc1nc(NCc2ccccc2SC)c2sccc2n1	x	i	3.9	x	x	0.6	x
